Sa RN4220 lethal: S. aureus RN4220 growth inhibition; OD600, 16 h; hit rate 0.33% among 330,000; inhibition, % (concentration not given with the values); AID 1259311;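 active means z-score of -3 or lower and OD600 up to 0.18 on both plates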;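 further: plate controls were untreated cells for no effect and reference antibiotic for full effect; stock transfer was 100 nL into about 80 µL; one replicate is shown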
PrP 5UTR inh: inhibition of PrP 5' UTR reporter expression; cell-based PrP 5' UTR mRNA reporter, plate reader; inhibition, % (concentration not given with the values); hit rate 0.35% among 340,000;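 active means every replicate at 50% or more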;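 further: 0 = median of the neutral control wells; tested in H4 reporter cells; numbers are from one replicate; inactives centre near -14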
ugtP null kill: compounds lethal to S. aureus RN4220 ugtP deletion mutant; hit rate 0.54% among 330,000; OD600 growth, 16 h; some inactives read as strong as hits; growth inhibition, % (concentration not given with the values);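 active means z-score under -3 and OD600 up to 0.15 on both plates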;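 further: plate controls were untreated wells for no effect and antibiotic for full effect; wells of about 80 µL received 100 nL stock; the first replicate is given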
Mtb hypoxia inh: Mtb hypoxia fluorescent reporter inhibition | hit rate 0.1% among 300,000 | fluorescence inhibition, % (test concentration not listed) | M. tuberculosis hypoxia-regulated fluorescent reporter, fluorescence;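 active means 35 to 45% if threefold the growth effect, above 45% if 1.5-fold the growth effect; inactive means the rest, general growth blockers included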;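 further: wells of about 50 µL received 100 nL stock; 0% = vehicle wells and 100% = reference inhibitor wells; whole bacteria with a GFP reporter of the hypoxia response; strong numbers were not always called active; many hits fall short of the cut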
BJeLR viability: kills HRASV12-expressing BJeLR cells; BJeLR (HRASV12) viability, CellTiter-Glo ATP luminescence, 48 h; reference of the scale not given here; inhibition, % (test concentration not listed); hit rate 0.17% among 300,000; AID 1554;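 active means replicate mean above 50%; inconclusive means above 50% but judged a plate artefact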;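 further: 50 nL library stock added to about 25 µL; numbers are from one replicate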
Bead autofluor: counter-screen for toxin protease inhibitors: compound fluorescence | compound autofluorescence counterscreen, microsphere flow cytometry; active compounds read high | fluorescence intensity (test concentration not listed) | hit rate 3.1% among 360,000 | AID 624483;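 active means at least 3 SD above the mean of all compounds, about 16000 in these data; inconclusive means too few beads counted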;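 further: 100 nL of 1 mM stock went into each well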
Mtb hypoxia inh growth: recorded beside Mtb hypoxia inh, whose call it bears; growth inhibition, %; measured here: M. tuberculosis growth (absorbance);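 0% = vehicle and 100% = reference antibiotic; read after six days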
Active calls of the source: *; ? = inconclusive; . = not tested or not shown.

SMILES	Sa RN4220 lethal	PrP 5UTR inh	ugtP null kill	Mtb hypoxia inh	Mtb hypoxia inh growth	BJeLR viability	Bead autofluor
CC(C)(CNC(=O)c1ccc(Cl)c(S(=O)(=O)N2CCc3ccccc3C2)c1)N1CCOCC1	-2.8	-13.1	2.3	4.9	6.9	4.3	4516
COc1ccc(-n2cc(CNCCN3CCOC3=O)c(-c3ccccc3Cl)n2)cc1	5.9	-20.0	2.4	13.0	5.2	-7.8	3568
CCn1cc(S(=O)(=O)NC(C)c2cc(OC)ccc2OC)cn1 (stereo not given)	2.9	11.7	2.1	-2.0	0.5	-5.4	6176
O=C(O)c1ccc(S(=O)(=O)N2CCC(Cc3ccccc3)CC2)cc1	3.3	-11.5	6.7	3.2	-5.0	-6.3	5803
CN(C)CCOC1c2ccccc2CCc2ccc3ccccc3c21 (stereo not given)	-4.1	-26.3	-7.2	24.6	15.4	-9.7	4239
Cc1c(C(=N)C(C#N)C#N)c(=N)oc2c1ccc1ccccc12	.	-31.6	.	.	.	3.9	3219
CCOc1ncccc1C(=O)OCC(=O)N1CCc2ccccc21	7.2	-6.0	4.7	1.0	-1.0	.	2066
Nc1cccnc1S(=O)(=O)c1ccccc1	-1.3	-4.9	12.4	6.2	10.9	0.0	4017
COc1ccc(Br)cc1C(=O)Nc1ccc(C(=O)O)cc1	2.3	8.5	14.9	-1.2	15.5	.	4636
O=C(CSc1nnc(SCc2cccc3ccccc23)s1)Nc1ccc(C(=O)O)cc1	7.9	-16.0	10.0	13.0	8.9	-0.7	4561
CCNC1CCS(=O)(=O)C1 (stereo not given)	2.9	-13.2	9.5	5.6	-5.5	4.5	3534
CCC1(c2ccccc2)NC(=O)N(CC(=O)Nc2ccccc2N2CCCCC2)C1=O (stereo not given)	0.8	-9.4	-10.4	1.1	-1.1	-0.8	5516

No new results follow: entries from further up.
SMILES	Sa RN4220 lethal	PrP 5UTR inh	ugtP null kill	Mtb hypoxia inh	Mtb hypoxia inh growth	BJeLR viability	Bead autofluor
CC(C)(CNC(=O)c1ccc(Cl)c(S(=O)(=O)N2CCc3ccccc3C2)c1)N1CCOCC1	-2.8	-13.1	2.3	4.9	6.9	4.3	4516
COc1ccc(-n2cc(CNCCN3CCOC3=O)c(-c3ccccc3Cl)n2)cc1	5.9	-20.0	2.4	13.0	5.2	-7.8	3568
CCn1cc(S(=O)(=O)NC(C)c2cc(OC)ccc2OC)cn1 (stereo not given)	2.9	11.7	2.1	-2.0	0.5	-5.4	6176

Continued.
SMILES	Sa RN4220 lethal	PrP 5UTR inh	ugtP null kill	Mtb hypoxia inh	Mtb hypoxia inh growth	BJeLR viability	Bead autofluor
CCN(CCn1cccn1)Cc1c(C(=O)N2CCCCCCC2)nc2ccc(Cl)cn12	3.5	-19.2	1.7	13.8	8.2	-1.3	2845
CC(=O)c1cccc(NC(=O)C(C)OC(=O)c2cccc(-n3cnnn3)c2)c1 (stereo not given)	-3.8	-0.1	6.6	1.5	-3.9	-0.3	5908
Cc1ccc(C)c(-c2csc(Nc3ncccn3)n2)c1	0.8	-16.5	-5.3	12.9	1.1	-5.0	3940
O=C(O)Cn1nnnc1SCC(=O)Nc1ccccc1F	0.0	-35.8	0.6	-3.8	12.6	1.2	4688
CSCCC(NC(=O)c1ccco1)C(=O)NCc1ccc2c(c1)OCO2 (stereo not given)	3.1	-9.7	11.9	-1.7	-5.4	.	5310
CC1CCCCN1Cc1c(O)ccc2c(=O)c(-c3nc4ccccc4s3)coc12 (stereo not given)	-4.7	4.9	-4.8	-12.3	10.3	0.5	5118
CC(=O)c1cccc(OCC(=O)Nc2ccccc2N2CCOCC2)c1	0.3	4.5	-1.5	-1.9	4.4	.	2888
CCc1c(O)nc(SCC(=O)Nc2ccccc2)n(-c2ccccc2)c1=O	4.8	-24.2	12.9	17.0	7.4	-7.1	10479
CN1CCN(Cc2ccc(Sc3ccc(Cl)cc3)c([N+](=O)[O-])c2)CC1	-0.5	-16.5	6.5	9.9	19.0	8.4	3456
Cc1onc(-c2ccccc2)c1C(=O)OCC(=O)Nc1ccccc1	-2.3	1.2	-1.8	1.2	2.4	.	?
COc1ccc(C2C(C(=O)Nc3cccc(C)n3)CCC(=O)N2c2ccc(OC)cc2)cc1 (stereo not given)	0.5	.	-3.2	.	.	2.1	.
CCOc1[nH]n(-c2ccc(Cl)cc2)c(=O)c1C=Nc1ccc(Cl)cc1	-1.8	-26.8	-13.9	9.5	9.9	-1.6	9302
COc1cccc(CN2CCNC(=O)C2CC(=O)O)c1OC (stereo not given)	1.0	-24.4	3.4	-5.6	3.7	-3.3	4518
CC(C)N(C(=O)CN1CCN(C(=O)C2COc3ccccc3O2)CC1)C(C)C (stereo not given)	4.4	-16.3	9.7	0.8	2.9	.	.
CCOc1ccc(OCCC(=O)OCC(=O)Nc2cc(C)nn2-c2ccccc2)cc1	2.5	-8.4	5.7	3.6	-3.0	14.3	4077
CC1CCc2c(C(=O)NCc3ccccn3)csc2C1 (stereo not given)	0.8	-91.6	5.4	12.7	10.2	-2.6	6931
Cc1cc(N2C(=O)C(=O)/C(=C(/O)c3ccccc3)C2c2cccc(Br)c2)no1 (stereo not given)	43.1	-9.7	11.1	10.9	7.8	-0.7	4910
COc1ccc(/C=C/C(=O)NNC(=O)c2ccncc2)c(OC)c1	2.1	-0.1	3.8	-1.9	-0.3	.	6582
COc1ccc(C)cc1S(=O)(=O)N(CC(=O)Nc1cccc([N+](=O)[O-])c1)c1ccccc1	3.3	-14.9	3.5	5.5	5.8	1.2	2039
CCn1c(SCC(=O)Nc2ccccc2F)nc2c(c1=O)SC(C)C2 (stereo not given)	-2.7	-6.0	-3.8	.	.	.	4844
Cc1ccc(S(=O)(=O)NNC(=O)CCC(=O)Nc2ccc(C)c(C)c2)cc1	-0.7	-15.4	-10.8	.	.	-6.8	2424
O=C(O)c1ccccc1-c1ncc(-c2ccccc2)o1	4.2	-38.2	3.6	13.0	0.7	2.6	5716
CC(C)(C)c1ccc(C(=O)Nc2ccc(O)c3c(=O)cc(-c4ccccc4Cl)oc23)cc1	2.7	-7.7	-1.0	3.2	-0.2	9.8	4032
CCOc1ccc2nc(C)cc(Nc3cccc([N+](=O)[O-])c3)c2c1	3.1	-10.9	-1.5	0.6	13.5	0.9	2603
Cc1ccccc1Cc1c(C)nc2nc(SCC(=O)NCCCN3CCCC3)nn2c1C	0.4	-25.3	5.4	-5.9	-6.8	10.8	5388
O=C(Nc1cc(Cl)ccn1)C1CCN(S(=O)(=O)c2cccs2)CC1	0.9	-8.9	-0.4	7.2	7.2	7.1	4418
CCC(=O)Nc1ccc(NC(=O)CCc2ccccc2)cn1	2.1	-7.1	5.4	0.9	20.4	-17.7	3511
CCC1CN(C(=O)NCc2cccc(OC)c2)c2cc(Cl)ccc2O1 (stereo not given)	2.4	-16.9	-4.6	-5.7	4.7	6.7	3977
O=C1/C(=C/c2cccc(O)c2)SC(=S)N1CC1CCCO1 (stereo not given)	1.3	-27.1	-0.1	14.3	-0.7	-6.1	4226
O=C(Nc1ccc(Br)cc1)N1CCCCCCC1	-19.6	-22.4	-7.8	.	.	3.3	2557
CC(Oc1ccccc1)C(=O)N1CCN(c2ccc(N3CCCCCC3)nn2)CC1 (stereo not given)	4.9	-33.5	2.3	10.8	4.7	-11.6	4444
c1csc(CSc2nc3ccccc3s2)c1	22.2	-79.5	46.1	4.7	3.3	-3.5	9177
COCCNC(=O)c1c[nH]n2c(=O)cc(C3CCN(C(=O)OC(C)(C)C)CC3)nc12	0.7	-44.8	1.6	10.5	12.7	-12.6	5997
Cc1ccc(-c2nn(C)c(=O)c3ccccc23)cc1S(=O)(=O)N1CCOCC1	5.6	-2.9	-1.6	5.0	9.5	1.2	25828*
NNc1cc(C(=O)O)ccc1Cl	2.3	-23.1	8.3	0.4	-10.7	5.1	4567
O=C(CN(Cc1ccco1)C(=O)CCC(=O)Nc1ccccn1)NCCc1ccccc1	-1.0	-22.0	9.4	.	.	-2.8	2507
O=C(NCC1CCCO1)c1cccc(Oc2ccc([N+](=O)[O-])cc2Cl)c1 (stereo not given)	2.0	-16.5	5.5	9.9	1.8	-4.2	2101
Cc1ccc(S(=O)(=O)N2CCN(Cc3ccco3)CC2)cc1C	1.1	-15.3	1.2	-1.2	0.5	3.8	5064
CC(Nc1nc(N2CCOCC2)nc2ccccc12)c1ccccc1 (stereo not given)	3.0	-0.7	9.6	-4.2	9.0	-0.1	4260
Cc1ccc(-n2cccn2)c(CN2CCCC(CNC(=O)c3ccc(F)cc3)C2)c1 (stereo not given)	2.1	80.0*	6.8	16.1	12.0	5.1	7025
COc1cccc(C=O)c1OCCN1C(=O)c2ccccc2C1=O	5.9	-21.8	6.2	-8.0	3.5	10.0	4288
Clc1ccc(SCCCN2CCCCC2)cc1	2.0	-15.2	1.6	4.8	5.4	-3.0	4477
COc1cc(Cl)ccc1OCc1cc(C(=O)N2C[C@@H]3CCC[C@H]2C3)no1	1.3	-89.7	1.4	10.3	4.9	6.5	5944
CN(c1ccccc1)S(=O)(=O)c1cccc(NC(=O)CSc2n[nH]c(N)n2)c1	1.7	0.3	6.3	9.4	10.2	-8.4	4361
CCN(CC)c1ccc(NC(=O)Nc2cccc3ccccc23)cc1	-1.7	-0.9	6.0	7.2	10.4	2.8	4225
Cc1cc(C(F)F)nn1CC(=O)NC1CCCC1	.	-24.3	.	.	.	4.2	6554
CN(CC(=O)Nc1cccc(F)c1)C(=O)CCCc1nc2ccccc2c(=O)[nH]1	0.4	-16.5	2.5	-3.6	12.8	0.1	5708
COc1ccc(CCN2C(=O)C3C4C=CC(C4)C3C2=O)cc1OC (stereo not given)	3.4	.	3.9	6.1	5.0	3.5	9470
COc1ccc(OC)c(C2C=C(C34CC5CC(CC(C5)C3)C4)NC(=S)N2)c1 (stereo not given)	.	-16.4	.	.	.	-0.7	2648
COc1ccc(NC(=O)C2CCCCC2)cc1S(=O)(=O)N1CCOCC1	0.9	-10.6	2.1	-5.1	-3.1	.	3085
NC(=O)NN=Cc1c(O)ccc2oc3c(c12)CCCC3	2.0	.	3.6	20.4	15.9	.	.
Cc1ccsc1C1C(C#N)=C(N)OC2=C1C(=O)CCC2 (stereo not given)	7.7	-7.2	8.5	2.8	7.3	-6.0	4279
O=C1C2C(c3ccccc3)C=CC(c3ccccc3)C2C(=O)N1c1ccccn1 (stereo not given)	8.6	3.5	15.8	5.2	14.0	14.7	1983
CC(=O)Oc1ccc2c3c(c(=O)oc2c1C)CCCC3	1.9	-12.6	11.6	-2.8	1.3	-4.7	3578
CC(=O)c1cc(C#N)c(Oc2ccc(Cl)cc2Cl)nc1C	3.3	-25.8	4.1	.	.	4.7	2348
COc1ccccc1C(=O)NCCn1cc(SCC(=O)Nc2nnc(C)s2)c2ccccc21	-1.2	-8.0	-3.0	-7.9	2.1	3.6	4205
COc1ccc(NC(=O)c2cc(S(=O)(=O)N3CCCC3)oc2C)cc1	5.4	-13.9	4.9	0.3	10.2	-3.5	4524
COc1ccc(C2/C(=C(/O)c3ccc(F)cc3)C(=O)C(=O)N2CCCN2CCOCC2)cc1OC (stereo not given)	2.5	-7.2	-2.0	7.3	-4.5	2.6	3645
O=C(Nc1ccc(F)c(F)c1)c1ccc2c(c1)OCO2	6.7	-47.0	-0.2	4.9	11.7	-9.5	6490
COc1cc(C2C(N3C(=O)c4ccccc4C3=O)C(=O)N2c2ccc(C)c(C)c2)cc(OC)c1OC (stereo not given)	5.9	-2.4	4.4	14.9	7.3	-11.6	2492
COC(=O)CSc1nnc(CNc2nc(-c3ccccc3)cs2)n1C	2.1	-10.4	-12.3	-0.2	0.8	5.7	8810
CS(=O)(=O)c1ccc2nc(NC(=O)CCNC(=O)c3ccc(Cl)cc3)sc2c1	0.1	-22.5	-2.5	3.3	3.8	.	?

Some values from above.
Result for COc1ccc(OC)c(C2C=C(C34CC5CC(CC(C5)C3)C4)NC(=S)N2)c1 (stereo not given) under Bead autofluor: 2648
Result for COc1ccc(NC(=O)C2CCCCC2)cc1S(=O)(=O)N1CCOCC1 under Bead autofluor: 3085
Result for CC(=O)c1cc(C#N)c(Oc2ccc(Cl)cc2Cl)nc1C under ugtP null kill: 4.1
Result for COc1ccc(C2/C(=C(/O)c3ccc(F)cc3)C(=O)C(=O)N2CCCN2CCOCC2)cc1OC (stereo not given) under BJeLR viability: 2.6
Result for Cc1ccsc1C1C(C#N)=C(N)OC2=C1C(=O)CCC2 (stereo not given) under Bead autofluor: 4279
Result for COc1cc(C2C(N3C(=O)c4ccccc4C3=O)C(=O)N2c2ccc(C)c(C)c2)cc(OC)c1OC (stereo not given) under Mtb hypoxia inh: 14.9

Screening results deposited in PubChem BioAssay by several laboratories.
